Bioassay records deposited in PubChem BioAssay by several laboratories.
AF4-AF9 inh = inhibitors of AF4 peptide binding to AF9, primary screen, biochemical, AlphaScreen, biotin-AF4 peptide, FLAG-AF9, single point; inhibition, % at 10 µM; AID 651704, 2012; Protein AF-9 (Homo sapiens), P42568; 0.47% of 350,000 active;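 active = every replicate reaching a set inhibition limit, whatever the replicate mean, cut at about 25% in these data; inconclusive = mean inhibition reaches that limit but some replicates miss it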;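 note: 0% = plate neutral control median and 100% = total signal loss; the record names both 10 and 1 µM as test concentration; the first replicate is given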
Target sequence (P42568 whole entry, looked up): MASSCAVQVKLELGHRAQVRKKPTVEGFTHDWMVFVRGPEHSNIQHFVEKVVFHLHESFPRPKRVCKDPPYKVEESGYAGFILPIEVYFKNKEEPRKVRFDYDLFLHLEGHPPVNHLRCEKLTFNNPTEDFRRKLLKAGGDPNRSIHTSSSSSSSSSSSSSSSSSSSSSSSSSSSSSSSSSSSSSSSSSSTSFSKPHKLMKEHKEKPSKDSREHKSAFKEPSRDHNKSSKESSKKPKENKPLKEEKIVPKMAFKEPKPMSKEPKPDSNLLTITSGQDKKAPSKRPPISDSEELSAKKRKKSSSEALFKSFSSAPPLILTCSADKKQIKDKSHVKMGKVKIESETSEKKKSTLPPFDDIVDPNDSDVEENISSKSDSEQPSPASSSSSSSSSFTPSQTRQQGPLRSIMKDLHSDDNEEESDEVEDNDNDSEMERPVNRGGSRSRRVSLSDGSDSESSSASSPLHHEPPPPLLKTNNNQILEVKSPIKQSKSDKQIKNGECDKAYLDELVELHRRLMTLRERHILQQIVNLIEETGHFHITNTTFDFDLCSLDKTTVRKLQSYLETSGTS
Calb FLC = C. albicans growth inhibition with fluconazole, primary screen, CaCi-2 strain, Alamar Blue fluorescence. 0.57% of 300,000 active. C. albicans CaCi-2 (fluconazole-resistant clinical isolate) + fluconazole, 48 h. AID 1979, 2009. growth inhibition, % (concentration not given with the values);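 active = most replicates above 75%; inconclusive = exactly half above 75%; inactive = most below 75%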;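 note: all wells also contain fluconazole at 8 µg/ml as a sub-toxic cotreatment; 0% = median of DMSO wells and 100% = median of geldanamycin control wells; wells of about 8 µL received 7.5 nL stock; the first replicate is given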
LANA-H2A inh = blockers of LANA interaction with H2A/H2B – biochemical, FP readout, HTS, primary screen; Protein LANA1 (Human herpesvirus 8 type P (isolate GK18)), Q9QR71; 0.6% of 320,000 active; inhibition, % (test concentration not listed); cell-free LANA-H2A/H2B peptide, fluorescence polarization; in the data active = inhibition mostly above about 10%, no sharp cut-off; inactive = mostly below about 6.7%;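 note: stock transfer was 7.5 nL into about 10 µL; 0% = median of vehicle wells and 100% = median of positive control wells; one replicate is shown; the record names a cut of 25% in any replicate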
T cruzi inh = inhibitors of intracellular T. cruzi growth, primary screen, luminescence, NIH3T3 host cells. T. cruzi beta-gal in NIH3T3, 90 h. inhibition, % (test concentration not listed). 1.4% of 300,000 active. AID 1885, 2009;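 active = mean inhibition across valid replicates above about 55%, limit read from the data; inconclusive = mean below that limit but half or more replicates reach it; inactive = mean below it, under half of replicates reach it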;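 note: signal also drops with host cell toxicity which is not excluded here; 0% = plate median of DMSO wells and 100% = zero luminescence signal; higher percent means less beta-gal luminescence so fewer parasites; stock transfer was 50 nL into about 50 µL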
Bfl-1 A1 inh = caspase 3/7 activation in MEF A1-2A-BIM cells, primary screen, A1 inhibitor project, cell-based, luminescence, HTS; Caspase-Glo 3/7 luminescence, 3 h; percent of clofoctol response, vehicle zero; caspase activation, % (concentration not given with the values); 0.066% of 330,000 active; AID 2462, 2010;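 active = over half of replicate activation scores above 10%, or exactly half above 10 with the replicate mean above 10; inconclusive = replicate mean below 10 yet half the replicates above 10; inactive = over half of replicates below 10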;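 note: wells of about 30 µL received 50 nL stock; many hits fall short of the cut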
Beta cell apopt = inhibitors of cytokine-induced beta cell apoptosis, primary screen, luminescence. 0.8% of 300,000 active. protection from apoptosis, % (concentration not given with the values). INS-1E cytokine-induced death, ATP luminescence, 48 h; percent of positive-control rescue, neutral wells zero;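 active = all replicates at 75% or more, or half of them and the mean; inconclusive = half reach 75% but not the mean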;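 note: 0% = cytokine-treated negative control wells and 100% = positive control rescue; higher means more ATP so stronger rescue from cytokine killing; wells of about 40 µL received 100 nL stock; the first replicate is given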
RanGTP-Imp inh = inhibitors of RanGTP-importin-beta interaction, primary screen, biochemical, FRET, CFP-Ran, YFP-importin-beta, homogeneous. cell-free CFP-Ran/YFP-importin-beta FRET ratio. inhibition, % (no concentration beside the values). 1.1% of 300,000 active. AID 2216, 2009;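 active = most replicates above 15%; inconclusive = exactly half above 15%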;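 note: 0% = DMSO wells and 100% = Ran loaded with GDP instead of GTP; wells of about 40 µL received 100 nL stock; the first replicate is given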
Vif TR-FRET = inhibitors of Vif binding to APOBEC3G peptide, primary screen, biochemical, TR-FRET, GST-Vif 1-94, biotin-A3G peptide, dose response retest (AID 1117319). inhibition, %, or IC50 in µM where a hit was titrated. 0.57% of 260,000 active. Virion infectivity factor (Human immunodeficiency virus type 1 group M subtype B (isolate …. TR-FRET GST-Vif / biotin-A3G peptide binding; higher % means a stronger effect; test concentration not given here; strong numbers were not always called active;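 active = above the screen mean plus three standard deviations and confirmed in dose response; inconclusive = results disagree or hit not tested in dose response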;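 note: Vif residues 1-94 fused to GST binding biotinylated APOBEC3G peptide 110-148; 0% = full assay without inhibitor and 100% = GST in place of GST-Vif; retest series ran down from 100 µM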
Numbers without * were called inactive; ? = inconclusive; / = no result given; & = joins results of further samples.

SMILES	AF4-AF9 inh	Calb FLC	LANA-H2A inh	T cruzi inh	Bfl-1 A1 inh	Beta cell apopt	RanGTP-Imp inh	Vif TR-FRET
C=C1CC2C(=O)N(Cc3ccccc3)C(C(=O)OCC)(C(=O)OCC)C1N2C(=O)OC(C)(C)C (stereo not drawn)	-1.2	-1	3.0	4	-1.8	-8	-1.9	/
CCOC(=O)C(C)Oc1ccc(C2NC(=O)NC(C)=C2C(C)=O)cc1Br (stereo not drawn)	5.0	-3	-0.8	-13	-0.2	-5	-2.1	?
COC(=O)c1cnc(SCc2ccc([N+](=O)[O-])cc2)n1C	-1.2	0	-0.5	-16	0.0	-3	0.0	-3%
CCCc1nnc(-c2ccc(OC)cc2)o1	-0.5	-4	-0.7	-2	-0.7	2	0.7	/
COc1cc(C(=O)NCC(=O)N/N=C/c2ccc(-c3ccc([N+](=O)[O-])cc3)o2)cc(OC)c1OC	0.3	-7	-8.6	6	0.4	4	-33	/
CCOc1ccc(C2C(C(=O)O)CCC(=O)N2C2CCCCC2)cc1 (stereo not drawn)	-0.3	-2	0.8	-10	0.4	-3	0.5	/
CCOC(=O)CCn1c2nc(C)cc(C)c2c(=O)n1-c1ccccc1	/	-6	7.0	-2	-0.2	-4	-5.4	1%
C=CCn1cc(CN2CCC(C(=O)Nc3cccc(-c4cccc(Cl)c4)c3)CC2)c(C)n1	8.1	-13	-0.4	17	-1.4	7	?	/
CCOC(=O)N1CCN(C(=O)CCn2nc(-c3ccccc3)ccc2=O)CC1	-2.3	1	3.7	-6	0.0	1	0.2	-6%
Nc1ccc(Br)c2cccnc12	-0.3	5	-0.4	-17	0.1	-3	-4.5	6%
Cc1ccc(NC(=S)NC(=O)c2ccc(F)cc2)cc1S(=O)(=O)Nc1cccc(Cl)c1	-1.7	-2	-4.1	40	0.9	16	3.1	/
COc1ccc(NC(=O)C2CCN(S(=O)(=O)c3cccc4nonc34)CC2)cc1	1.4	-3	4.7	13	-0.1	-5	-4.8	/
CCC(C)NC(=O)c1cc(-c2ccc3c(c2)OCO3)on1 (stereo not drawn)	-1.8	-5	-0.4	8	-3.1	-4	-0.7	/
O=C(c1ccc(C#CC2(O)CCCCC2)cc1)N1CCN(C(c2ccccc2)c2ccccc2)CC1	/	13	-2.3	35	0.0	12	1.9	-2%&-2%
Fc1ccccc1-c1nc(N2CCCCC2)c2ccccc2n1	/	5	-2.2	1	0.1	-2	-1.9	/
O=C(Nc1ccc2c(c1)OCCO2)C1CCN(c2ncccn2)CC1	-0.8	0	1.1	-12	-0.8	-3	?	23%
Cc1ccc(NC(=O)c2cccc(S(=O)(=O)N3CCN(c4ccc(F)cc4)CC3)c2)nc1	1.4	-14	-0.8	-5	0.5	0	5.5	/
Cc1cc(C)cc(C(=O)Nc2ccc(N3CCCC3)cc2)c1	12	3	-3.6	25	-4.5	15	-3.0	7%
COC(=O)C1=CN(Cc2cccs2)C=C(C(=O)OC)C1c1ccc(OC)cc1OC	-21	-6	2.4	26	0.1	-1	40*	/
CC(=O)c1ccc(NS(=O)(=O)c2cccc(C(=O)Nc3ccccc3C(=O)O)c2)cc1	-0.8	-1	0.2	-3	-1.1	-3	2.6	/
COc1cc2c(cc1NC(=O)c1cccc(S(=O)(=O)N(C)C)c1)oc1ccccc12	/	-9	-0.3	47	-0.1	3	-1.8	0%
CCC1(C)Cc2ccccc2-c2[nH][nH]c(=O)c21 (stereo not drawn)	-2.7	1	0.5	-10	0.6	-9	/	-9%
Cc1c(NC(=O)c2cc(-c3ccc(Cl)s3)nc3ccccc23)c(=O)n(-c2ccccc2)n1C	/	3	0.8	21	-1.3	/	0.2	10%
CC(=O)c1coc2ccc(OCC(=O)O)cc12	/	3	-2.0	-27	-1.1	-4	4.0	16%
O=C(c1cnccn1)N1CCN(C/C=C/c2ccccc2)CC1	/	4	3.9	-14	-0.2	-1	-0.4	24%
O=C(c1ccc(S(=O)(=O)N2CCOCC2)cc1)N(c1ccc(F)cc1)C1C=CS(=O)(=O)C1 (stereo not drawn)	?	1	2.3	-2	0.3	4	-1.6	-4%
O=C1CC(N2CCCc3ccccc32)C(=O)N1c1ccccc1 (stereo not drawn)	/	-4	-3.9	-13	0.5	2	2.6	-2%
CC(=O)N1[C@H](Cc2ccccc2)C=C[C@]1(C)C(=O)NCc1ccc(C)o1	/	3	0.4	-7	0.0	-4	5.5	15%
NC(=O)c1ccsc1NC(=O)C1CC1	3.1	-4	-0.9	3	0.5	0	-2.9	/
CN1CCc2c(n(CC(O)CN3CCN(CCO)CC3)c3ccccc23)C1=O (stereo not drawn)	-1.0	-2	0.4	0	0.5	-3	-1.5	-6%
O=C(Cc1cccs1)NC(Cc1c[nH]c2ccccc12)C(=O)O (stereo not drawn)	-2.2	-3	3.9	-8	-0.2	-2	0.9	14%
COc1ccc(/C(C)=N/NC(=O)c2nnn(-c3nonc3N)c2-c2cccs2)cc1	-2.1	2	1.9	6	-0.7	-1	-0.6	/
O=C(O)COc1ccc(Br)cc1/C=N\Nc1ccccn1	/	-1	-0.3	-13	2.9	-10	1.9	/
CC(=O)c1ccc(NS(=O)(=O)c2ccc(N)cc2)cc1	-0.8	-4	2.5	0	1.6	-1	-1.8	/
O=c1cc(CSc2ccc(Cl)cc2)nc(-c2ccccc2)[nH]1	-1.7	1	9.3	-24	-0.7	2	6.6	-3%
CCn1c(SCc2nnc(-c3ccccc3)o2)nnc1-c1ccc(S(=O)(=O)N2CCCC2)cc1	/	-9	-1.3	-5	-0.7	8	-1.3	-2%
FC(F)(F)c1ccc(Oc2ccc(Cl)cc2Br)nc1	-1.9	-4	8.5	-24	0.2	5	4.1	-3%
CC1CN(Cc2c(O)ccc3c(=O)c(-c4ccccc4)coc23)CC(C)O1 (stereo not drawn)	1.3	-9	-2.5	1	-0.6	-6	0.4	-2%
O=C(Nc1nnc(C2CC2)s1)c1cc(S(=O)(=O)N2CCCCC2)ccc1N1CCOCC1	-7.4	35	-6.1	24	1.0	5	4.3	/
O=C(Nc1ccccc1C(=O)NCc1cccnc1)c1ccc(Cl)cc1Cl	0.4	8	2.4	1	0.2	-2	2.9	-5%
CC(=O)NCCn1ccc2ccccc21	/	3	-0.9	-1	-0.4	-3	4.3	-2%
COc1ccc(-c2nc(-c3ccccc3)c(-c3cc([N+](=O)[O-])ccc3C)[nH]2)cc1O	/	25	0.5	-7	-0.4	-5	-0.3	3%
O=C(Nc1nnc(-c2ccc(F)cc2)o1)c1ccc(S(=O)(=O)N2CCOCC2)cc1	/	/	-1.5	41	-0.9	55	/	/
Cc1ccc(S(=O)(=O)n2c([N+](=O)[O-])cnc2C)cc1C	-1.2	-17	12*	-1	0.8	-3	2.7	28%
CC1=C(C(=O)N2CCCCC2)C2(CCC(C)CC2)OC1=O (stereo not drawn)	0.6	-1	2.8	-6	1.3	15	-4.2	9%
C=CCNC(=S)Nc1ccc(C)c(S(=O)(=O)N2CCCCC2)c1	1.8	20	0.1	4	-0.2	2	-1.6	/
CN(C)CCCNC(=O)CCc1ncc(C(F)(F)F)cc1Cl	-0.3	-10	1.5	-6	0.0	-3	1.8	-3%
COCC(C)NC(=O)Cc1ccc(F)cc1 (stereo not drawn)	/	4	3.4	-10	-0.7	2	1.7	-4%
CC(C)c1c(C(=O)N/N=C/c2ccccc2C(=O)O)nnn1-c1nonc1N	1.0	-18	1.1	-16	0.5	3	3.4	2%
CCOc1ccc2nc(NC(=O)COC)sc2c1	/	-21	2.1	16	-4.9	-1	?	20%

(more compounds)
SMILES	AF4-AF9 inh	Calb FLC	LANA-H2A inh	T cruzi inh	Bfl-1 A1 inh	Beta cell apopt	RanGTP-Imp inh	Vif TR-FRET
COc1ccc(NC(=O)C(C)N(C)Cc2ccc3ccccc3c2)cc1 (stereo not drawn)	-2.1	-7	1.5	12	0.1	-2	-5.1	/
O=C(CCNC(=O)c1ccc(Br)cc1)NNC(=O)COc1ccccc1F	-2.0	/	-3.2	/	-0.6	-3	/	-7%
CCN(CC(=O)NCc1ccc(F)cc1)C(=O)Cc1c(F)cccc1Cl	1.7	-1	-2.6	-7	-0.5	/	-3.4	/
O=C(c1cc2ccccc2cc1O)N1CCN(c2ccccc2O)CC1	5.0	77*	6.8	-12	-0.1	-2	-1.4	1%
COc1cccc(C(=O)N2CCN(Cc3ccccn3)CC2)c1	0.7	4	-0.2	6	0.2	-7	3.9	-9%
Cc1nc(-c2cccc(N)c2)cs1	-1.1	2	-3.9	-9	-0.6	/	-10	-1%
COc1ccc(CCNC(=O)CN2CCC(C)CC2)cc1OC	/	-4	1.2	-16	0.5	/	-0.6	-1%
O=C(NCc1cccs1)C1CCCN(C(=O)Nc2ccccc2)C1 (stereo not drawn)	0.6	1	4.2	-13	0.4	-5	1.3	-10%
Cc1cc2c(cc1C)C(c1ccccc1OC(C)C)CC(=O)N2 (stereo not drawn)	4.7	19	-1.3	11	0.7	41	1.3	/
COc1cc(Br)c(C(C)NC(=O)c2cccc(Br)c2)cc1OC (stereo not drawn)	/	-27	0.9	9	0.7	4	-4.9	10%

Reprinted from the part before: 2 entries, followed by the next part.
SMILES	AF4-AF9 inh	Calb FLC	LANA-H2A inh	T cruzi inh	Bfl-1 A1 inh	Beta cell apopt	RanGTP-Imp inh	Vif TR-FRET
Cc1cc2c(cc1C)C(c1ccccc1OC(C)C)CC(=O)N2 (stereo not drawn)	4.7	19	-1.3	11	0.7	41	1.3	/
COc1cc(Br)c(C(C)NC(=O)c2cccc(Br)c2)cc1OC (stereo not drawn)	/	-27	0.9	9	0.7	4	-4.9	10%
COCCCn1c(=O)c2ccccc2n(Cc2ccccc2)c1=O	0.1	3	7.7	2	-0.7	/	1.2	0%
COc1ccc(C2C(C(=O)NCCN3CCOCC3)c3ccccc3C(=O)N2C)cc1OC (stereo not drawn)	/	-3	-3.7	-5	-0.2	3	5.0	11%&3%
CCNc1nc(NC#N)nc(SCC(=O)OCC)n1	/	-8	-0.1	-4	0.5	2	0.7	1%
COc1ccc(NC(=O)C2CCCN(S(=O)(=O)c3ccc4c(c3)CC(C)N4C(C)=O)C2)cc1 (stereo not drawn)	-3.0	-3	-4.7	-3	-0.1	4	0.0	/
Cc1ccccc1C(=O)Nc1nnc(S(=O)(=O)N2CCCCCC2)s1	4.1	-4	-1.1	-5	-1.0	13	4.2	/
C=CCNc1sc(C(=O)c2ccc(Br)s2)c(N)c1C#N	/	32	11	2	/	-13	19*	-1%
Cc1ccc(C2NC(c3ccc(C)cc3)C(C)C(=NO)C2C)cc1 (stereo not drawn)	-76	16	-0.2	-10	0.2	-4	1.2	3%
O=C(CCC(=O)N1CCOc2ccccc21)NCc1cccnc1	-2.8	9	-1.1	4	0.3	-10	2.6	/
COc1ccc(N2Cc3ccccc3C2=NC(=O)c2cccc([N+](=O)[O-])c2)cc1	7.1	5	-1.0	7	-2.9	1	-0.7	27%
